# LANA-H2B inh: blocks KSHV LANA binding to histone H2A/H2B | 320,000 tested, 0.6% active | cell-free LANA-H2A/H2B peptide, fluorescence polarization | Q9QR71 | AID 2629 | inhibition, % (test concentration not listed); in the data active means inhibition mostly above about 10%, no sharp cut-off; inactive means mostly below about 6.7%;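 further: stock transfer was 7.5 nL into about 10 µL; 0% = median of vehicle wells and 100% = median of positive control wells; one replicate is shown; the record names a cut of 25% in any replicate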
# UCH37 DUB inh: inhibitors of human deubiquitinating enzyme UCH37; Q9Y5K5; purified proteasome/UCH37, Ub-AMC cleavage fluorescence; inhibition, % (concentration not given with the values); 330,000 tested, 0.33% active;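 active means mean of two replicates above 20%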;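 further: 0% = compound-free wells with enzyme and 100% = wells lacking proteasome; stock transfer was 100 nL into about 20 µL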
#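 Assay system: Proteasome-bound UCH37. Buffer or medium: pH 7.4 Tris-HCl (50 mM) with ovalbumin, ATP-MgCl2, DTT. Incubation: 30 min preincubation with enzyme, 25 min cleavage at room temperature. Measured by: fluorescence, ex 355 nm, em 460 nm. Read-out basis: percent inhibition. Control set: wells without proteasome as full block, compound-free enzyme plus substrate as uninhibited.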
# FGF22 binding: shifts melting point of recombinant human FGF22; Q9HCT0; recombinant FGF22 thermal shift, SYPRO orange fluorescence; percent of sucrose octasulfate shift, DMSO zero; calls only at 9.99 µM; 340,000 tested, 1.5% active; AID 651658;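 active means melting point raised past a set limit in the mean and every replicate; inconclusive means no clear call; three in four hits are not shown here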
# Target sequence (Q9HCT0 whole entry, looked up): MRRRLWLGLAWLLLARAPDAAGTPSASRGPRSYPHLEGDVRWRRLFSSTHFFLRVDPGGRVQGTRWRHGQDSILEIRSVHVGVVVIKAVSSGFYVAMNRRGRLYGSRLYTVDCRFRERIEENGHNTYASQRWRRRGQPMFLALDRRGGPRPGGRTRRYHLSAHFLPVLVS
# B2AR ag: human beta-2 adrenergic receptor agonism by FAP | P07550 | Am2.2-beta2AR cells, FAP receptor internalization, flow cytometry; reference of the scale not given here | response, % (concentration not given with the values) | 340,000 tested, 0.43% active | AID 504454;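 active means response above a set limit, near 3 SD of response in nonfluorescent compounds, cut at about 42% in these data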;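 further: stock transfer was 100 nL into about 11 µL; a reference agonist was the positive control; negative values mostly stem from fluorescent compounds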
# ALR inh: blocks human ALR sulfhydryl oxidase activity; P55789; purified ALR, DTT oxidation, H2O2 HRP-luminol luminescence; inhibition, % (test concentration not listed); 290,000 tested, 3.8% active; AID 485317;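 active means mean and each replicate at 75% or more; inconclusive means only one of the two met; inactive means neither met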;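 further: stock transfer was 7.5 nL into about 7.5 µL; 0% = neutral wells and 100% = wells with inactivated enzyme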
# Target sequence (P55789 whole entry, looked up): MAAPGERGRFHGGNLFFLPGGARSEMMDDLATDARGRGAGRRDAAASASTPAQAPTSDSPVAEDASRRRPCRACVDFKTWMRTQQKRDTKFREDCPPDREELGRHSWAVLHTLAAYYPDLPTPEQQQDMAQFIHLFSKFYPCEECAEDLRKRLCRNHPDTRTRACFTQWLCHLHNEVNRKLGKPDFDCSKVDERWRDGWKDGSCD
# Ecoli growth: inhibitors of Escherichia coli growth; OD600 absorbance (concentration not given with the values); 330,000 tested, 0.21% active; OD600, 23 h; active compounds read low;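 active means OD600 absorbance below the run mean of sample wells minus 3.6 SD, in any replicate, cut at about 0.56 in these data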;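 further: stock transfer was 300 nL into about 60 µL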
# HNF4A DNA FP: change in binding of human HNF4 alpha to DNA | P41235 | HNF4a-FITC DNA binding, fluorescence polarization, 1 h | activity change, % at 10 µM | 360,000 tested, 0.3% active; in the data active means activity change above about 30%, passing the limit was not always enough;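 further: controls were the assay level and a saturating level of protein; the project sought stronger binding though the title names inhibitors; some compounds called inactive have numbers as strong as hits; positive values seem to mean higher polarization but the record does not say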
# Target sequence (P41235 whole entry, looked up): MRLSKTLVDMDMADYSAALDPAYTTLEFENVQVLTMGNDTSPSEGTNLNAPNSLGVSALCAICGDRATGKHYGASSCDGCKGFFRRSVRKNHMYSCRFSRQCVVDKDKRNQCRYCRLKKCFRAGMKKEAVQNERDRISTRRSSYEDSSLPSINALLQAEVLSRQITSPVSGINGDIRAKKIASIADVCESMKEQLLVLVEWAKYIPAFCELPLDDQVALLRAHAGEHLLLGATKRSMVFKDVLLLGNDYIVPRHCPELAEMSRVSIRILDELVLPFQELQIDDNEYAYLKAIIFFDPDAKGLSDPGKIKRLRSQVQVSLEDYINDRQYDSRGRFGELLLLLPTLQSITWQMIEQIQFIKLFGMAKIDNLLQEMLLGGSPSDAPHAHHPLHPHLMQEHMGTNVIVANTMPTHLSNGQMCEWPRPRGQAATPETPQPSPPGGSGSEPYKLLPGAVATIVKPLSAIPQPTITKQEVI
# Numbers without * were called inactive; i = inactive; ? = inconclusive; . = no result given. These rows are one share of the data; rates above refer to the full screens.
No.	SMILES	LANA-H2B inh	UCH37 DUB inh	FGF22 binding	B2AR ag
1	Cc1ccc(S(=O)(=O)NCCC(=O)N2CCC(C(N)=O)CC2)cc1C	-0.4	-1.2	i	3
2	CCOc1ccc2nc(Cl)c(/C=C/C(=O)c3ccco3)cc2c1	-2.1	0.6	.	16
3	COc1cccc(NC(=O)c2ccccc2-c2nc(-c3ccccc3)no2)c1	-2.6	0.2	.	-1
4	CCn1c(SCC(=O)Nc2cc(C)ccc2C)nc2c(c1=O)SC(C)C2 (stereo unspecified)	-2.5	8.9	i	-4
5	CCCCn1c(=S)[nH]c2ccc(N3CCOCC3)cc2c1=O	-0.4	14	.	.
6	CN1C(=S)SC(/[N+]([O-])=C\c2ccc(Cl)cc2)C1(C)C (stereo unspecified)	0.7	3.2	.	6
7	O=C(c1ccccc1)c1ccc2nc(-c3ccco3)c(-c3ccco3)nc2c1	-0.3	-117	i	9
8	CC1CN(c2nc3c(c(=O)n(Cc4ccc(Cl)cc4)c(=O)n3C)n2C)CC(C)O1 (stereo unspecified)	2.5	2.1	.	9
9	CN(CC(=O)Nc1ccc(F)cc1)C(=O)COC(=O)c1ccc(-c2ccccc2)cc1	2.8	0.7	i	8
10	O=C(COc1ccc2ccccc2c1)Nc1ccc(Br)cc1C(=O)O	0.6	.	i	4

No.	ALR inh	Ecoli growth	HNF4A DNA FP
1	2	0.68	-0.6
2	46	0.71	2.3
3	-9	0.68	-0.5
4	.	0.69	4.3
5	37	0.7	.
6	-2	0.72	2.0
7	-7	0.72	-44
8	5	0.66	1.2
9	-5	0.68	-0.5
10	15	.	-3.7

# (continued)
No.	SMILES	LANA-H2B inh	UCH37 DUB inh	FGF22 binding	B2AR ag
11	O=C(Nc1nccs1)[C@@H]1CCCN1S(=O)(=O)c1ccc(Cl)cc1	-1.5	0.5	i	-5
12	COc1ccc(C2/C(=C(/O)c3ccc4c(c3)CC(C)O4)C(=O)C(=O)N2CCCN2CCOCC2)cc1 (stereo unspecified)	3.5	21*	i	4
13	COc1cc(C)ccc1OCC(=O)Nc1ccc2c(c1)OCO2	-3.9	1.8	i	0
14	CCOC(=S)SCc1cn2cccc(C)c2n1	0.8	1.7	i	-11
15	COc1ccccc1CN1CC(C(=O)NCc2cc(F)ccc2C)CCC1=O (stereo unspecified)	.	-0.5	i	12
16	CCCCOc1ccc(/C=C/C(=O)OCC(=O)NC(=O)NCC(C)C)cc1OCC	3.1	-35	i	0
17	CCOc1ccc(OCC)c(NC(=O)CC2Oc3ccc(C)cc3NC2=O)c1 (stereo unspecified)	-4.3	6.7	i	-1
18	O=c1ccn(CCOc2ccc(Cl)cc2)c(=O)[nH]1	-6.0	2.6	.	1
19	CC(C)c1ccc(/C=C2\CC/C(=C\C=N\N(C)C)C2=O)cc1	-2.4	.	.	4
20	CC(C)c1ccccc1NC(=O)COC(=O)COc1ccccc1[N+](=O)[O-]	-0.4	1.9	i	-1

No.	ALR inh	Ecoli growth	HNF4A DNA FP
11	.	0.69	1.5
12	48	0.64	0.9
13	-7	0.64	-4.3
14	-68	0.72	2.9
15	.	0.68	0.1
16	-17	0.7	-4.0
17	-27	0.76	1.9
18	-6	0.66	2.8
19	96*	.	15
20	-4	0.64	2.4

# Additional structures
No.	SMILES	LANA-H2B inh	UCH37 DUB inh	FGF22 binding	B2AR ag
21	O=C(/C=C\Nc1ccccn1)c1ccc(Cl)cc1	0.0	-5.5	.	-2
22	CCOC(=O)N1CCc2c(sc(N)c2C#N)C1	12	2.9	.	0
23	CCCCOc1cccc(C2/C(=C(/O)c3ccc4c(c3)CC(C)O4)C(=O)C(=O)N2CCN2CCOCC2)c1 (stereo unspecified)	0.0	8.1	i	2
24	O=C(NNC(=S)Nc1ccc(Cl)cc1Cl)c1cccnc1	0.7	6.4	i	-8
25	CCOC(=O)C1=CN(CC2CCCO2)C=C(C(=O)OCC)C1c1ccccc1C(F)(F)F (stereo unspecified)	-3.1	-366	i	-5
26	COc1ccc(/C=N/N=C2/CC(C)(C)Cc3n[nH]c(=O)cc32)cc1	3.0	.	i	-4
27	C[C@H](NC(=O)c1nc[nH]c1C(=O)NC1CCN(C(=O)OC(C)(C)C)CC1)C(=O)OCc1ccccc1	-2.0	4.5	i	9
28	CCOc1ccccc1CN1CCCC(CNS(=O)(=O)c2ccc(OC)cc2)C1 (stereo unspecified)	3.8	0.4	i	5
29	CC[C@]1(C(=O)OC)[C@H]2C(=O)N(C)C(=O)[C@H]2[C@H]2CN(C)C(=NC)N21	.	1.9	.	-5
30	N#Cc1ccc(OCC(=O)NNC(=O)C2CCCCC2)cc1	4.2	0.0	i	2

No.	ALR inh	Ecoli growth	HNF4A DNA FP
21	1	0.71	-0.5
22	-11	0.61	.
23	7	0.67	3.5
24	?	0.67	4.2
25	-3	0.71	0.5
26	-59	.	-36
27	-25	.	2.3
28	-1	0.72	-2.7
29	.	0.7	0.2
30	.	0.66	-1.7

# Arranged by number of heavy atoms (high to low): some entries from above.
No.	SMILES	LANA-H2B inh	UCH37 DUB inh	FGF22 binding	B2AR ag
23	CCCCOc1cccc(C2/C(=C(/O)c3ccc4c(c3)CC(C)O4)C(=O)C(=O)N2CCN2CCOCC2)c1 (stereo unspecified)	0.0	8.1	i	2
25	CCOC(=O)C1=CN(CC2CCCO2)C=C(C(=O)OCC)C1c1ccccc1C(F)(F)F (stereo unspecified)	-3.1	-366	i	-5
9	CN(CC(=O)Nc1ccc(F)cc1)C(=O)COC(=O)c1ccc(-c2ccccc2)cc1	2.8	0.7	i	8
16	CCCCOc1ccc(/C=C/C(=O)OCC(=O)NC(=O)NCC(C)C)cc1OCC	3.1	-35	i	0
8	CC1CN(c2nc3c(c(=O)n(Cc4ccc(Cl)cc4)c(=O)n3C)n2C)CC(C)O1 (stereo unspecified)	2.5	2.1	.	9
3	COc1cccc(NC(=O)c2ccccc2-c2nc(-c3ccccc3)no2)c1	-2.6	0.2	.	-1
20	CC(C)c1ccccc1NC(=O)COC(=O)COc1ccccc1[N+](=O)[O-]	-0.4	1.9	i	-1
10	O=C(COc1ccc2ccccc2c1)Nc1ccc(Br)cc1C(=O)O	0.6	.	i	4
26	COc1ccc(/C=N/N=C2/CC(C)(C)Cc3n[nH]c(=O)cc32)cc1	3.0	.	i	-4
13	COc1cc(C)ccc1OCC(=O)Nc1ccc2c(c1)OCO2	-3.9	1.8	i	0
30	N#Cc1ccc(OCC(=O)NNC(=O)C2CCCCC2)cc1	4.2	0.0	i	2
24	O=C(NNC(=S)Nc1ccc(Cl)cc1Cl)c1cccnc1	0.7	6.4	i	-8

No.	ALR inh	Ecoli growth	HNF4A DNA FP
23	7	0.67	3.5
25	-3	0.71	0.5
9	-5	0.68	-0.5
16	-17	0.7	-4.0
8	5	0.66	1.2
3	-9	0.68	-0.5
20	-4	0.64	2.4
10	15	.	-3.7
26	-59	.	-36
13	-7	0.64	-4.3
30	.	0.66	-1.7
24	?	0.67	4.2

No.	SMILES	LANA-H2B inh	UCH37 DUB inh	FGF22 binding	B2AR ag
6	CN1C(=S)SC(/[N+]([O-])=C\c2ccc(Cl)cc2)C1(C)C (stereo unspecified)	0.7	3.2	.	6
18	O=c1ccn(CCOc2ccc(Cl)cc2)c(=O)[nH]1	-6.0	2.6	.	1
22	CCOC(=O)N1CCc2c(sc(N)c2C#N)C1	12	2.9	.	0

No.	ALR inh	Ecoli growth	HNF4A DNA FP
6	-2	0.72	2.0
18	-6	0.66	2.8
22	-11	0.61	.

# Whole records as entered above. Order of screens: LANA-H2B inh	UCH37 DUB inh	FGF22 binding	B2AR ag	ALR inh	Ecoli growth	HNF4A DNA FP
# Profile of CCOC(=O)C1=CN(CC2CCCO2)C=C(C(=O)OCC)C1c1ccccc1C(F)(F)F (stereo unspecified) = -3.1	-366	i	-5	-3	0.71	0.5
# Profile of O=C(NNC(=S)Nc1ccc(Cl)cc1Cl)c1cccnc1 = 0.7	6.4	i	-8	?	0.67	4.2

# (further entries)
No.	SMILES	LANA-H2B inh	UCH37 DUB inh	FGF22 binding	B2AR ag
31	Cc1ccc(S(=O)(=O)NN2Cc3ccccc3C2=N)cc1	-1.9	-0.7	i	-1
32	CC(C)(C)/C(COc1ccccc1[N+](=O)[O-])=N/O	-0.6	.	i	24
33	CC(=N\NC(=O)c1ccccc1)/C(=N/O)C(=O)Nc1ccccc1	6.3	.	i	3
34	Cc1ccc(-c2csc(NC(=O)c3c(C)noc3C)n2)cc1C	.	-2.1	i	21
35	Cc1cc2c(cc1S(=O)(=O)N(C)c1ccccc1)n(C)c(=O)n2C	-4.1	3.6	i	0
36	CC(/C=C1\SC(=O)N(CC(=O)Nc2ccc(O)cc2)C1=O)=C\c1ccccc1	-2.0	.	i	1

No.	ALR inh	Ecoli growth	HNF4A DNA FP
31	.	0.68	3.4
32	4	.	2.2
33	7	.	0.0
34	-1	0.67	4.7
35	.	0.7	1.5
36	-27	.	-0.5

# Source: PubChem BioAssay
